Bioassay records: PubChem, several laboratories
BJeLR lethal: BJeLR cell viability loss; BJeLR (HRASV12) viability, CellTiter-Glo ATP luminescence, 48 h; reference of the scale not given here; inhibition, % (concentration not given with the values); 300,000 compounds, 0.17% hits;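 active = replicate mean above 50%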;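 also: 50 nL library stock added to about 25 µL; numbers are from one replicate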
PrP 5UTR inh: suppresses PrP 5' UTR mRNA reporter expression | cell-based PrP 5' UTR mRNA reporter, plate reader | 340,000 compounds, 0.35% hits | inhibition, % (concentration not given with the values);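 active = every replicate at 50% or more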;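 also: 0 = median of the neutral control wells; tested in H4 reporter cells; numbers are from one replicate; inactives centre near -14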
Bead autofluor: flagged as autofluorescent in microsphere protease counterscreen; compound autofluorescence counterscreen, microsphere flow cytometry; stronger effect = higher value; fluorescence intensity (concentration not given with the values); 360,000 compounds, 3.1% hits;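 active = at least 3 SD above the mean of all compounds, about 16000 in these data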;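 also: 100 nL of 1 mM stock went into each well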
The depositor's hits bear a star; · = no result given.

Every second line gives: BJeLR lethal	PrP 5UTR inh	Bead autofluor
> NC(=O)c1c(/N=C/c2cccnc2)sc2c1CCCC2
  -7	·	6659
> COc1ccc(Cc2nnc(N/N=C/c3ccc(Br)cc3)[nH]c2=O)cc1OC
  3	·	4300
> Cc1ccccc1-n1c(C)cc(/C=N/NC(=O)c2ccncc2)c1C
  -1	·	8025
> CN(C)c1ccc(C(=O)N/N=C/c2cc(Br)cc(Br)c2O)cc1
  5	·	3666
> Cn1c(=O)n(C)c2cc(/C=N/NC(=O)c3ccc(Cl)cc3)ccc21
  -1	·	4086
> COc1cc(/C=N/NC(=S)NCCc2ccccc2)cc(OC)c1OC
  -3	·	3936
> Cn1cccc1/C=N/NC(=O)CNc1cccc2ccccc12
  6	·	4668
> COc1cc(/C=N/NC(=O)c2ccoc2C)cc(OC)c1OC
  0	·	10669
> O=C(CSc1nc2ccccc2[nH]1)N/N=C/c1ccncc1
  1	·	5908
> Cc1cc(C(=O)N/N=C/c2ccc(-c3cccc(Br)c3)o2)n[nH]1
  4	·	4453
> CN(C)S(=O)(=O)c1cccc(NC(=S)N/N=C/c2ccco2)c1
  13	·	3333
> O=C1CSC(=S)N1/N=C/c1ccc(O)c(O)c1O
  9	·	3306
> Oc1ccc(Br)cc1/C=N/n1c(COc2ccccc2)n[nH]c1=S
  10	·	3348
> Nc1nonc1-n1nnc(C(=O)N/N=C/c2cccc(Cl)c2)c1CSc1ccccc1
  -5	·	4371
> CCn1c(SCC(=O)N/N=C\c2ccccc2OCC(=O)O)nnc1-c1ccc(Cl)cc1
  -7	·	4307
> CC1CCC/C(=N\NC(=O)COc2ccc(Cl)cc2Cl)C1 (centres undefined)
  4	·	11537
> Cc1cc(C(=O)N/N=C/c2c(C)nn(-c3ccccc3)c2Cl)n[nH]1
  -5	·	3623
> N/C(=N\N=C\c1cccc([N+](=O)[O-])c1)c1nonc1N
  -8	·	3770
> O=C(Cn1cc(C(F)(F)F)ccc1=O)N/N=C/c1ccccc1O
  5	·	4400
> COc1ccc(/C=N/NC2=NS(=O)(=O)c3ccccc32)cc1OC
  -5	·	3355
> Cc1ccc(/C=N/NC(=S)Nc2cccc(S(=O)(=O)N(C)C)c2)o1
  19	·	3767
> O=C(CNS(=O)(=O)c1ccc([N+](=O)[O-])cc1)N/N=C/c1ccc(O)cc1O
  -5	·	3385
> C/C(=N/NC(=O)CN1CCN(Cc2ccccc2Cl)CC1)c1cccs1
  0	·	4249
> COc1ccc(OC)c(/C=N/NC(=O)c2[nH]ncc2Br)c1
  -7	·	5707
> CC(=O)/C(=N\Nc1ccccc1)Oc1ccc(Br)cc1
  -10	·	5944
> O=C(C[n+]1ccccc1)N/N=C/c1cc(Br)ccc1O
  -4	·	4060
> CCOC(=O)/C(C)=N/Nc1nc(-c2ccc(NC(C)=O)cc2)cs1
  7	·	6392
> COC(=O)N/N=C/c1ccc(OC(=O)/C=C/c2ccco2)cc1
  -11	·	4858
> COc1ccc(OC)c(Nc2nc(N)c([N+](=O)[O-])c(NCc3ccccc3)n2)c1
  3	·	6168
> CC(C)Oc1ccc(CCC(=O)N/N=C/c2ccncc2)cc1
  -7	·	3260
> C(=N\NCc1ccccc1)/c1ccc2ncccc2c1
  6	·	6054
> COc1ccc(-c2cc(C(=O)N/N=C/c3cc(OC)c(OC)cc3OC)c3ccccc3n2)cc1
  -2	·	5745
> O=C(CSc1cccc2cccnc12)N/N=C/c1cccnc1
  -4	·	4295
> COc1ccc(N=C2S/C(=C\c3ccc(Cl)c([N+](=O)[O-])c3)C(=O)N2CCN(C)C)cc1
  59*	·	3637
> CCn1nc(C)c(/C=N/NC(=O)CSc2ccccn2)c1C
  0	·	6067
> Cc1cc(C)nc(/N=C(\N)Nc2ccc(SC(F)F)cc2)n1
  4	·	4059
> CCc1ccc2c(c1)C(NC(C)=O)C(=O)N2CCN1CCOCC1 (centres undefined)
  -2	·	3646
> CCCCCC(=O)N/N=C(\C)c1ccc(Cl)cc1
  0	·	9701
> CCOC(=O)c1[nH]ncc1CN1CCC(Cc2cccc(OC)c2)(C(=O)OCC)CC1
  -5	·	4164
> Cn1cccc1/C=N\NC(=O)c1cncc(Br)c1
  -4	·	4731
> O=C(Cc1ccccc1)N/N=C/C=C/c1ccccc1[N+](=O)[O-]
  -8	·	4729
> CCOC(=O)c1c(/N=C/C2=C(O)CC(C)(C)CC2=O)sc2c1CCCC2
  -8	·	5444
> O=C(CSc1nc2ccccc2n1Cc1ccccc1)N/N=C/c1ccccc1C(=O)O
  1	·	3501
> COc1ccc(C2Nc3cccc4cccc(c34)N2)cc1Br
  -7	·	3560
> Cn1c(=O)[nH]c(=O)c2c1nc(N/N=C/c1ccncc1)n2Cc1ccc(Cl)cc1
  0	·	4313

Brought forward from above: two compounds, then new ones.
Every second line gives: BJeLR lethal	PrP 5UTR inh	Bead autofluor
> COc1ccc(C2Nc3cccc4cccc(c34)N2)cc1Br
  -7	·	3560
> Cn1c(=O)[nH]c(=O)c2c1nc(N/N=C/c1ccncc1)n2Cc1ccc(Cl)cc1
  0	·	4313
> c1ccc(Cn2c3ccccc3c3nnc(SCCN4CCCCC4)nc32)cc1
  0	·	3735
> Nc1nonc1-n1nnc(C(=O)N/N=C/c2ccccc2Cl)c1CSc1ccccc1
  -3	·	4303
> Cc1ccc(NCC(=O)N/N=C\c2ccc[nH]2)cc1
  -3	·	5388
> COc1ccc(/C=N/NC(=O)c2ccn[nH]2)cc1Cn1nc(C)c([N+](=O)[O-])c1C
  7	·	4587
> CC(=O)c1cc2ccc(O)cc2oc1=O
  5	·	3971
> COc1ccc(F)cc1CN1CCN(c2ncnc3scc(-c4ccccc4)c23)CC1
  3	·	3860
> O=c1[nH]c2cc3c(cc2cc1C(c1nnnn1C1CCCC1)N1CCSCC1)OCCO3 (centres undefined)
  8	·	8220
> Nc1c(Cl)ncnc1N/N=C/c1ccncc1
  -2	·	4629
> S=C(N/N=C/c1ccco1)NC1CC2CCC1C2 (centres undefined)
  -2	·	3364
> C/C(CC(=O)Nc1ccc(Cl)cc1C(F)(F)F)=N\NC(N)=S
  10	·	4161
> C[C@]12CCC3C(CCC4=C/C(=N/OCC(=O)NC(CCC(=O)O)C(=O)O)CC[C@@]43C)C1CCC2O (some centres undefined)
  -12	·	3568
> CC(=C/c1ccccc1)/C=N/NC(=O)c1cccs1
  2	·	3581
> O=C(CN1CCN(Cc2ccc(Cl)cc2)CC1)N/N=C/c1cccc(F)c1
  -8	·	4155
> Cc1ccc(C(=O)Nc2cccc(C(F)(F)F)c2)cc1Nc1ncnc2nc[nH]c12
  13	·	2901
> C/C(=N\NC(=O)c1ccc(Cl)cc1)c1ccc2[nH]ccc2c1
  -1	·	4379
> S=c1[nH]nc(-c2ccncc2)n1/N=C/c1ccccc1Cl
  2	·	4072
> Cc1cc(C)c(/C=N/NC(=O)c2nnn(-c3nonc3N)c2COc2ccc(F)cc2)c(C)c1
  -10	·	4423
> COC(=O)c1cnn(-c2ccccc2)c1/C=N/NC(=S)Nc1ccccc1
  -3	·	4297
> CC1(C)OC(c2ccccc2)=C/C(=C\C=N\NC(=O)c2ccncc2)O1
  2	·	6164
> Cc1ccc(S(=O)(=O)Nc2ccc3c(c2)CC(=O)N([C@H](C)CO)C[C@H](C)[C@H](CN(C)Cc2ccc4c(c2)OCO4)O3)cc1
  ·	-17	4149
> CNC(=O)Oc1ccccc1OC(C)C
  ·	-36	5176
> COc1cc(C2C3=C(COC3=O)OC(C)(C)Oc3cc4c(cc32)OCO4)cc(OC)c1OC (centres undefined)
  ·	45	4236
> C[C@H](NC(=O)c1[nH]cnc1C(=O)Nc1ccc(Cl)cc1)c1ccccc1
  ·	-20	3959
> Cc1cc(CNC[C@H]2O[C@@H](n3cnc(C(N)=O)n3)[C@H](O)[C@@H]2O)c(C)n1-c1cccnc1
  ·	-3	2922
> CCN1C(=O)[C@H]2[C@@H](c3ccc(-c4cccc(Cl)c4)c(OC)c3)N3CCCC[C@@]3(C(=O)OC)[C@H]2C1=O
  ·	-9	3831
> CC(C)(C)OC(=O)C[C@H]1C/C=C\C[C@@H](CC(=O)N[C@H](CO)Cc2ccccc2)C(=O)NC[C@@H](c2ccccc2)OC1=O
  ·	-8	3898
> CN1OC[C@@H]2CN[C@H](c3cccc(-c4cc(Cl)cc(Cl)c4)c3)C[C@@H]21
  ·	-5	4375
> CCc1ccc([C@@H]2CC=C(C(=O)O)[C@H](c3cccc(Cl)c3)N2S(=O)(=O)c2ccc(C)cc2)cc1
  ·	-20	3583
> CC[C@H](C)[C@H]1CNC(=O)C(=O)N1CC1CCN(CCc2ccccc2)CC1
  ·	-15	3810
> C=CCC[C@@H](Cc1ccc(F)cc1)C(=O)OC[C@H]1CCCN1C(=O)[C@@H](CC=C)CC(=O)N[C@H](CO)Cc1ccccc1
  ·	-15	4285
> Cc1csc(CNc2ncnc3ccc(-c4ccoc4)cc23)c1
  ·	-6	3809
> Cn1c(=O)c2[nH]c(C3CC=CCC3)nc2n(C)c1=O (centres undefined)
  ·	-1	3702
> Cc1ccccc1-n1c(SCC(=O)c2c(N)n(C3CC3)c(=O)[nH]c2=O)nnc1N1CCOCC1
  ·	6	2878
> CS(=O)(=O)c1ccc(C(=O)NNC(=O)c2cc(-c3ccccc3)n[nH]2)cc1
  ·	-23	3565
> NC(=O)c1ncn([C@@H]2O[C@H](CNCc3ccccc3C#Cc3ccccc3)[C@@H](O)[C@H]2O)n1
  ·	-22	3678
> CN1C[C@@H]2[C@@H]3C(=O)N(Cc4ccccc4)C(=O)[C@@H]3[C@](C)(C1=O)N2C(=O)c1ccc(Cl)cc1
  ·	-27	3819
> Cc1cccc(C(=O)Oc2ccccc2/C=N/Nc2ccc([N+](=O)[O-])cc2)c1
  ·	-5	10199
> O=C1N[C@@H](c2ccccc2)COC(=O)[C@H](Cc2ccc(F)cc2)CC/C=C/C[C@@H]1CC(=O)N(CCO)Cc1ccccc1
  ·	1	2962
> COc1ccc(OC)c(NC(=O)CSc2nc3[nH]c(=O)[nH]c(=O)c3s2)c1
  ·	-3	2953
> C[C@@H]1CN([C@H](C)CO)C(=O)Cc2cc(NS(=O)(=O)c3ccc(Cl)cc3)ccc2O[C@H]1CN(C)Cc1ccc(C(F)(F)F)cc1
  ·	-16	4163
> O=C1CCCC/C=C\C[C@H](CC(=O)N(CCO)Cc2ccccc2)C(=O)N2CCC[C@@H]2CO1
  ·	-10	3541

Molecules shown so far with an aryl thioether with sulfur outside any ring:
Every second line gives: BJeLR lethal	PrP 5UTR inh	Bead autofluor
> O=C(CSc1nc2ccccc2[nH]1)N/N=C/c1ccncc1
  1	·	5908
> Nc1nonc1-n1nnc(C(=O)N/N=C/c2cccc(Cl)c2)c1CSc1ccccc1
  -5	·	4371
> CCn1c(SCC(=O)N/N=C\c2ccccc2OCC(=O)O)nnc1-c1ccc(Cl)cc1
  -7	·	4307
> O=C(CSc1cccc2cccnc12)N/N=C/c1cccnc1
  -4	·	4295
> CCn1nc(C)c(/C=N/NC(=O)CSc2ccccn2)c1C
  0	·	6067
> Cc1cc(C)nc(/N=C(\N)Nc2ccc(SC(F)F)cc2)n1
  4	·	4059
> O=C(CSc1nc2ccccc2n1Cc1ccccc1)N/N=C/c1ccccc1C(=O)O
  1	·	3501
> c1ccc(Cn2c3ccccc3c3nnc(SCCN4CCCCC4)nc32)cc1
  0	·	3735
> Nc1nonc1-n1nnc(C(=O)N/N=C/c2ccccc2Cl)c1CSc1ccccc1
  -3	·	4303
> Cc1ccccc1-n1c(SCC(=O)c2c(N)n(C3CC3)c(=O)[nH]c2=O)nnc1N1CCOCC1
  ·	6	2878
> COc1ccc(OC)c(NC(=O)CSc2nc3[nH]c(=O)[nH]c(=O)c3s2)c1
  ·	-3	2953

A portion of the library. The share of hits here may be higher or lower than overall.
